Source: PubChem (several laboratories)
HSV replic up – increases HSV replication in cells. HSV replication augmentation in cells, fold increase. maximum fold increase. actives 0.005% (n = 220,000). AID 1956;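 active = peak rise of 1.5-fold or more in the series; inconclusive = self-fluorescent or not available for retest; tested in PC3 cells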;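 note: first round at 10 µM; read as green reporter fluorescence; hits show the peak of a series up to 25 µM; 1 = signal of infected wells without compound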
RGS16-Gao HTS – modulates binding between human RGS16 and Galphao | bead-based flow cytometry RGS16-Galphao binding, fluorescence; actives lie on both sides | binding response (% of control), % at 10 µM | actives 0.38% (n = 220,000) | AID 1441;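 active = below 25% or above 175%, edge rows of some plates excepted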;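 note: Galphao activated by GDP with aluminum fluoride before binding; 100% = wells without compound and 0% = beads without RGS; some results beyond the cut were filed as inactive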
Target sequence (O15492 whole entry, looked up): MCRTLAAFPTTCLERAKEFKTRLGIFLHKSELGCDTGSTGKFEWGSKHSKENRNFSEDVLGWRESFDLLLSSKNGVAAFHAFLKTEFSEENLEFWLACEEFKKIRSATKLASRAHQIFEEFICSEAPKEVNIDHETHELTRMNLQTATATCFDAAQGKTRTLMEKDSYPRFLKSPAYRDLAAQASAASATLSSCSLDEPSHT
Target sequence (P09471 whole entry, looked up): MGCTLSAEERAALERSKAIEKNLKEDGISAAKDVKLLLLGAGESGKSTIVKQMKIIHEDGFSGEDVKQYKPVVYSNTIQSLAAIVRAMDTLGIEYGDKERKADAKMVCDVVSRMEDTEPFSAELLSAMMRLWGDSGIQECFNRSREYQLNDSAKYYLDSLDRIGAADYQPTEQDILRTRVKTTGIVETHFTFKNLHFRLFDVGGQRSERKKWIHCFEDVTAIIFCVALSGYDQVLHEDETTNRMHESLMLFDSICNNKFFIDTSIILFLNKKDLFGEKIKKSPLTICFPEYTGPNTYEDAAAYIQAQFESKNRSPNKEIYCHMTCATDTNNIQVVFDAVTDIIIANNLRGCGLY
Insulin prom inh – TRM-6 insulin promoter activity inhibition; actives 0.9% (n = 130,000); AID 1273; TRM-6 cells (human fetal islet line), insulin promoter-eGFP reporter, imaging; reporter expression induced with tamoxifen; inhibition, % at 2 µM;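 active = inhibition above the mean plus 3 SD, with well images judged a real hit on visual review, cut at about 60% in these data, passing the limit was not always enough; inconclusive = inhibition over the cutoff but images rejected on review; inactive = inhibition not above the cutoff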
GALR2 ag – agonists of human galanin receptor 2 (GALR2); actives 0.48% (n = 140,000); GALR2-expressing cells, agonist activation read-out; O43603; activation, %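 (tested at 5 µM)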;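 active = above mean plus 3 SD of all compounds, about 5% in these data, not always enough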;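 note: 0% = vehicle buffer wells and 100% = reference agonist at full effect; tested in CHO reporter cells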
PKD1 inh – blocks activity of human protein kinase D1; Q15139; inhibition, %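 (about 10 µM by stock and volumes)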; AID 797; actives 0.056% (n = 200,000); PKD1 kinase fluorescence polarization assay;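 active = inhibition of 50% or more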;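 note: controls were vehicle for no effect and a reference inhibitor for full effect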
Insulin prom inh cell count – recorded beside Insulin prom inh, whose call it bears; normalized cell count, %; measured here: cell count, toxicity; reference of the scale not given here;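 cells exposed to compound for 48 h; stained nuclei by imaging scaled within each plate; lower means fewer cells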
HSV replic up primary fold – second read-out of HSV replic up, no call of its own (marks repeat the call); fold increase; compound at 10 µM; measured here: primary screen fold increase 10 uM; tested in PC3 cells;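 GFP signal in the first replicate; 1 = infected wells without compound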
Numbers without * were called inactive; i = inactive; u = inconclusive; x = no result given. Some of the compounds tested; the hit share may differ from the screen's.

SMILES	HSV replic up	HSV replic up primary fold	RGS16-Gao HTS	Insulin prom inh	Insulin prom inh cell count	GALR2 ag	PKD1 inh
CCN1C(=O)C(=Cc2ccc(N3CCOCC3)o2)C(=O)N(CC)C1=S	u	x	95.0	x	x	x	x
O=C1NC(=O)N(c2ccccc2)C(=O)/C1=C/c1ccc([N+](=O)[O-])s1	i	1.13	63.8	x	x	x	-9.2
O=c1[nH]c(=O)n(CCc2ccccc2)c(O)c1C=NCCCn1ccnc1	i	1.02	108.2	x	x	-1.8	1.9
COc1cccc(C(=O)C2CCCN(Cc3cnn(C(C)C)c3)C2)c1 (centres undefined)	i	1.05	95.3	x	x	x	3.1
COc1ccc(C(=O)O/N=C(/C(N)=O)P(=O)(OC(C)C)OC(C)C)cc1	i	1.16	102.4	x	x	x	x
Cc1cc(C(=O)CS(=O)(=O)c2ccc(F)cc2)cc(C)c1OC(=O)N(C)C	i	1.02	101.5	x	x	x	-0.5
O=C(O)C1CN2CCC1CC2 (centres undefined)	i	0.89	72.3	x	x	0.0	-4.0
CCC(=NCCC1=CCCCC1)c1c(O)[nH]c(=O)[nH]c1=O	i	0.927	101.0	22.2	79.8	-0.5	-10.4
O=C(COc1ccccc1)N1CCN(C/C=C/c2ccccc2)CC1	i	0.87	99.0	-100.0	143.5	-1.3	1.8
CC1CN=C(NCc2ccncc2)S1 (centres undefined)	i	1.08	98.8	-12.1	101.4	-1.1	-6.6
COc1ccc(-c2nc3ccccc3c(=O)n2-c2ccc(OC)cc2)cc1	i	0.92	101.5	x	x	x	-4.0
CC(=NCCc1ccccc1)c1c(O)[nH]c(=O)[nH]c1=O	i	0.98	104.2	x	x	x	x
CN(C)C(=O)Nc1cccc(OC(=O)N(C)C)c1	i	1.08	107.8	34.2	93.2	-1.9	-2.4
CC(=NCc1ccco1)c1c(O)n(C)c(=O)n(C)c1=O	i	0.84	102.3	43.8	82.0	0.0	-1.1
O=S(=O)(c1ccc(Cl)cc1)N1CN2CCN(C2)C1	i	0.88	110.4	21.4	187.1	-0.4	1.5
COc1ccccc1Sc1ccccc1CC(C)N (centres undefined)	i	0.74	103.0	7.4	87.0	-1.3	-1.7
COc1ccc(OCC(=O)N2CCN(Cc3nc4cc([N+](=O)[O-])ccc4n3C)CC2)cc1	i	1.01	97.2	-233.3	120.7	-0.8	-7.9
COC(=O)[C@]12OC[C@]34C([C@@H](O)[C@@H]1O)[C@]1(C)CC(=O)C(O)=C(C)[C@@H]1C[C@H]3OC(=O)[C@H](O)[C@@H]24 (some centres undefined)	i	0.72	98.9	x	x	x	x
COc1ccccc1OCC#CCN1CCOCC1	i	1.01	108.5	x	x	x	-5.6
O=C(Nc1ccc(Cl)cc1C(=O)c1ccccc1)c1ccccc1	x	x	101.6	41.4	98.0	-2.0	-14.2

2 entries from above in a different format:
Sequence of screens: HSV replic up | HSV replic up primary fold | RGS16-Gao HTS | Insulin prom inh | Insulin prom inh cell count | GALR2 ag | PKD1 inh
> CN(C)C(=O)Nc1cccc(OC(=O)N(C)C)c1
  i | 1.08 | 107.8 | 34.2 | 93.2 | -1.9 | -2.4
> COc1ccccc1Sc1ccccc1CC(C)N (centres undefined)
  i | 0.74 | 103.0 | 7.4 | 87.0 | -1.3 | -1.7

Carrying on.
SMILES	HSV replic up	HSV replic up primary fold	RGS16-Gao HTS	Insulin prom inh	Insulin prom inh cell count	GALR2 ag	PKD1 inh
O=C1C2CCCN2C(c2ccccc2)N1c1ccccn1 (centres undefined)	i	0.9	93.5	x	x	-0.2	9.3
O=C1NC(=O)C2(Cc3ccccc3N3CCCC32)C(=O)N1c1ccccc1 (centres undefined)	i	1	99.7	1.8	122.4	0.2	-9.7
CN(C)c1ccc(/C=C/c2cc[n+](C)c3ccccc23)cc1	i	0.9	101.2	x	x	x	-9.3
O=c1[nH]c(O)c(C=Nc2ccccc2[N+](=O)[O-])c(=O)[nH]1	i	1.06	156.5	-33.3	58.5	x	0.4
Cc1c(C=O)c2ccccc2n1Cc1ccccc1F	i	0.99	101.6	x	x	x	-3.7
COc1ccc(CN2C(=O)NC(=O)/C(=C\c3ccc(OC)c(OC)c3OC)C2=O)cc1	i	0.99	97.6	-135.7	79.4	x	3.2
COc1ccc(-n2c(O)c(C(C)=NC3CC3)c(=O)[nH]c2=O)cc1	i	1.06	102.2	33.3	132.1	-1.0	8.3
CCOC(=O)c1c(NC(=O)C(c2ccccc2)c2ccccc2)sc2c1C1CCN2CC1	i	0.99	100.3	14.3	55.2	0.9	-3.7
Cn1cccc1CNCCc1ccc(F)cc1	i	0.9	74.5	16.7	133.5	-0.9	-1.6
C(=NC12CN3CN(CN(C3)C1)C2)c1cccnc1	i	0.96	98.9	-12.5	92.7	2.3	-0.9

Arranged by number of heavy atoms (lowest first): 6 of the compounds above
SMILES	HSV replic up	HSV replic up primary fold	RGS16-Gao HTS	Insulin prom inh	Insulin prom inh cell count	GALR2 ag	PKD1 inh
O=C(O)C1CN2CCC1CC2 (centres undefined)	i	0.89	72.3	x	x	0.0	-4.0
C(=NC12CN3CN(CN(C3)C1)C2)c1cccnc1	i	0.96	98.9	-12.5	92.7	2.3	-0.9
COc1ccc(-n2c(O)c(C(C)=NC3CC3)c(=O)[nH]c2=O)cc1	i	1.06	102.2	33.3	132.1	-1.0	8.3
COc1ccc(C(=O)O/N=C(/C(N)=O)P(=O)(OC(C)C)OC(C)C)cc1	i	1.16	102.4	x	x	x	x
COc1ccc(-c2nc3ccccc3c(=O)n2-c2ccc(OC)cc2)cc1	i	0.92	101.5	x	x	x	-4.0
COC(=O)[C@]12OC[C@]34C([C@@H](O)[C@@H]1O)[C@]1(C)CC(=O)C(O)=C(C)[C@@H]1C[C@H]3OC(=O)[C@H](O)[C@@H]24 (some centres undefined)	i	0.72	98.9	x	x	x	x

The listing continues:
SMILES	HSV replic up	HSV replic up primary fold	RGS16-Gao HTS	Insulin prom inh	Insulin prom inh cell count	GALR2 ag	PKD1 inh
C=CCn1c(O)c(C=NCCN2CCOCC2)c(=O)[nH]c1=S	i	1.07	103.1	x	x	x	x
Cc1cc(C)c(-n2c(O)c(/C=N/NC(=O)c3ccncc3)c(=O)[nH]c2=O)c(C)c1	i	1.08	93.8	x	x	x	x
CCCCN1C(=N)C(CC)(CC)C(=O)NC1=O	i	1.22	99.5	33.3	106.5	-0.3	14.3
CN1CCN2c3ccccc3CC3(C(=O)N(C)C(=O)N(C)C3=O)C2C1 (centres undefined)	i	1	98.9	x	x	x	x
CCCCC(=O)N/N=C/c1c(O)n(CCc2ccc(OC)c(OC)c2)c(=O)[nH]c1=O	i	0.86	109.7	13.3	109.7	-0.6	1.2
CCCn1ncc(C(=O)O)c1C	i	0.9	100.2	x	x	-4.5	-11.9
CN(C)C(=O)CSc1nnc([C@@H](N)Cc2ccccc2)o1	i	0.66	76.4	x	x	-0.1	-0.7
Cc1ccc(C)c(OCC(=O)N2CCCN(C)CC2)c1	i	0.9	102.1	18.8	152.0	-1.8	-7.8
CP(=O)(Nc1ccc(Cl)cc1)c1nc2c(s1)CCCC2 (centres undefined)	i	0.99	103.8	x	x	x	x
CCCCC(=O)N/N=C/c1c(O)n(CCCC)c(=S)[nH]c1=O	i	0.96	108.1	x	x	x	x
CC1(O)C[C@]2(C)N(O)C3CCCC[C@@H]3N2O1 (some centres undefined)	i	1.15	59.9	-18.2	87.8	-1.2	31.1
Cc1ccc2c(c1)CC1(CN2C)C(=O)NC(=O)N(c2ccccc2C)C1=O (centres undefined)	i	0.91	99.4	x	x	-1.2	-8.3
